Assay outcomes (PubChem)
PABP polyA inh = blocks human PABP binding to poly(A) RNA; P11940; fluorescence polarization; inhibition, % at 35 µM; 290,000 tested, 1% active;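 active = 50% or more with normal probe brightness, or confirmed in later tests; inconclusive = above 50% with abnormal brightness, or retests that disagree; inactive = below 50% or failed in later tests; about a fifth of its hits are not listed in these tables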;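 also: calls also rest on retests at 20 µM and on dose response follow-up; controls were probe without protein and protein plus probe with vehicle; some compounds called inactive have numbers as strong as hits; many hits fall short of the cut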
Target sequence (P11940 whole entry, looked up): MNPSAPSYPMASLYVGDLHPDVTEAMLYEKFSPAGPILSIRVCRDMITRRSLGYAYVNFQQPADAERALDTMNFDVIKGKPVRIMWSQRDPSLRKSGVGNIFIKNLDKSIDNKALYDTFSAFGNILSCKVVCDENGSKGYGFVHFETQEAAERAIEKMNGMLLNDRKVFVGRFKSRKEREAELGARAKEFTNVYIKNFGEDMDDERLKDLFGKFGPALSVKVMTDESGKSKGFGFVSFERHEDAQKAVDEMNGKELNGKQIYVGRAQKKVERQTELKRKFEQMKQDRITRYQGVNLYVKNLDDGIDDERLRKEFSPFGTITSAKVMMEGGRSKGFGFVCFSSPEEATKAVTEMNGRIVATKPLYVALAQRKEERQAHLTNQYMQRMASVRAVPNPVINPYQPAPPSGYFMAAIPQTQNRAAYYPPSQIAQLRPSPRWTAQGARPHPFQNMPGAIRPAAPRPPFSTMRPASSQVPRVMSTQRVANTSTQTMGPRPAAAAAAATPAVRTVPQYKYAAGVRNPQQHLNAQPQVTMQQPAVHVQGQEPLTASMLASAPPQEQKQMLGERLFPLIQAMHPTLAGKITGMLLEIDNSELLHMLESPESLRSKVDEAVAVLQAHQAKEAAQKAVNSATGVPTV
eIF4H inh = inhibitors of RNA binding by human eIF4H; 290,000 tested, 0.94% active; inhibition, % at 35 µM; eIF4H fluorescence polarization binding assay; Q15056;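 active = 50% or more with normal probe brightness, or confirmed in later tests; inconclusive = above 50% with abnormal brightness, or retests that disagree; inactive = below 50% or failed in later tests; about a fifth of its hits are not listed in these tables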;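 also: calls also rest on retests at 20 µM and on dose response follow-up; 0% = protein and probe with vehicle and 100% = probe without protein; strong numbers were not always called active; many hits fall short of the cut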
CSC inhib = cancer stem cell inhibition; inhibition, % at 7.5 µM; 300,000 tested, 1.1% active; cancer stem cell-like cells viability, luminescence;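 active = mean at 75% or more and at least half the replicates too; inconclusive = mean and replicates disagree; tested in HMLE shEcad cells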;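 also: 0% = median of negative and 100% = median of positive control wells; the first replicate is given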
Rce1 inhib = yeast Ras-converting enzyme inhibition. calls only. 290,000 tested, 0.27% active. yeast membranes, quenched prenylated peptide cleavage fluorescence. Q03530;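 active = fall in fluorescence gain of 50% or more versus controls, with final raw signal at or below 3038400; inconclusive = same 50% fall but final raw signal above 3038400; inactive = fall in fluorescence gain under 50%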;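 also: plate controls were neutral control wells for no effect and wells lacking membranes for full effect; tested at 10 µM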
Target sequence (Q03530 whole entry, looked up): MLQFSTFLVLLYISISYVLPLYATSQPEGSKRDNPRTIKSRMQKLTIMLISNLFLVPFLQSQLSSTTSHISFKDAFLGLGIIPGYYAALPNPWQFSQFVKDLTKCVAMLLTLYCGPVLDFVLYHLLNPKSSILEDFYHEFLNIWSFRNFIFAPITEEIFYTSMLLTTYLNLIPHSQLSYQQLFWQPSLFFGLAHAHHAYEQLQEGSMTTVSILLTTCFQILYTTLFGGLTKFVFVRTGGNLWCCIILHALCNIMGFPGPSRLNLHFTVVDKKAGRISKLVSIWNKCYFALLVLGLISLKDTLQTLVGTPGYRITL
UUG fidelity = alters start codon recognition fidelity in yeast. activity score, % at 18.7 µM. S. cerevisiae UUG-firefly luciferase reporter, luminescence/redox ratio. 350,000 tested, 0.13% active;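 active = replicate mean at a twofold rise or more, about +100% in these data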;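 also: firefly luciferase made from a UUG start codon reports start codon fidelity; reporter light over untreated wells divided by growth signal over untreated wells; some hits fall short of that in this replicate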
Env fusion inh = inhibitors of HIV Env-mediated cell fusion; HeLa-JRFL Env/CEM21 cell fusion, luciferase; inhibition, % at 12.3 µM; 360,000 tested, 1.1% active;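 active = mean replicate inhibition score of at least 50 and every replicate individually at or above 50; inconclusive = only one of the two criteria met; inactive = mean below 50 and not all replicates reaching 50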;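 also: 0% = plate neutral controls and 100% = maraviroc near 300 nM; one replicate is shown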
MT1-MMP act inh = blocks activation of human MT1-MMP | HT1080 RFP-PRO-GFP cells, GFP/RFP ratio fluorescence, overnight; percent of plate control window, DMSO zero | P50281 | GFP/RFP ratio change, % at 20 µM | 360,000 tested, 0.061% active;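 active = GFP/RFP ratio change of at least 30% with cell ATP level not reduced by more than half and red fluorescence within 50% of control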; also: strong numbers were not always called active
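Assay system: RFP-PRO-GFP reporter HT1080 cells; read-out basis: GFP/RFP fluorescence ratio; benchmarks: DMSO wells and RFP-L50D-GFP cells; doses: 20 µM single dose, 1% DMSO; schedule: overnight cell settling, then overnight compound exposure, 37 °C, 5% CO2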
eIF4H inh retest = second read-out of eIF4H inh, no call of its own (marks repeat the call); inhibition, %; compound at 20 µM; confirmation average;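 mean of two retest wells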
PABP polyA inh retest = recorded beside PABP polyA inh, whose call it bears; inhibition, %; compound at 20 µM; confirmation repeats;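 mean of two retest wells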
MT1-MMP act inh RFP = second read-out of MT1-MMP act inh, no call of its own (marks repeat the call); RFP signal change, %; measured here: RFP expression control read;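 0 = vehicle wells; hits needed this value within 50% of zero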
Active calls of the source: *; i = inactive; ? = inconclusive; · = not tested or not shown; & = joins results of further samples.

SMILES	PABP polyA inh	eIF4H inh	CSC inhib	Rce1 inhib	UUG fidelity	Env fusion inh	MT1-MMP act inh	MT1-MMP act inh RFP	others
Cc1ccc(S(=O)(=O)N2CCOCC2)cc1C(=O)N1CCN(Cc2ccccc2)CC1	·	·	·	·	-13	5	0	-6
COc1ccc(CCNS(=O)(=O)c2ccc(OC)cc2)cc1	2	-5	1	i	-7	-34	3	6
CCCCC(=O)Nc1nc(C)c(-c2csc(Nc3ccccc3OC)n2)s1	4	-12	28	i	-13	15	7	10
Cc1ccc(NC(=O)Nc2ccc3c(c2)N(C)C(=O)CS3)cc1C	-9	0	-1	i	-4	-47	-4	-6
O=C(O)C1C2C=CC(C2)C1C(=O)NC(c1ccccc1)c1ccccc1 (stereo unspecified)	-8	-4	-1	i	6	-9	-3	-2
CS(=O)(=O)N1CCCC(C(=O)NCc2ccc(F)cc2Cl)C1 (stereo unspecified)	-14	-9	9	i	-6	·	4	5
O=C1CC(c2ccccc2)Sc2nc3ccccc3n21 (stereo unspecified)	5	-2	0	i	·	-46	-1	-7
O=C(Oc1ccc(-c2cnc3ccccc3n2)cc1)c1ccc(Cl)c([N+](=O)[O-])c1	17	-10	-10	i	·	·	6	7
Cc1cccc(C(=O)NNC(=O)CSc2nnc(C3CC3)n2C)c1	-3	-5	·	i	·	-4	-3	1
O=C1c2cccc([N+](=O)[O-])c2C(=O)N1C1CCCCC1	-8	-7	-7	i	1	14	-7	-3
CCOC(=O)c1c(C)[nH]c(C(=O)OCC(=O)N2c3ccccc3CC2C)c1C (stereo unspecified)	4	5	9	i	8	?	3	-8
C=CCc1c(OC)ccc2c1c(S(=O)(=O)c1ccc(C)cc1)cn2COC	-4	-3	0	i	9	2	0	-2
CC(CN1CCCC1)OC(=O)c1ccc(F)cc1 (stereo unspecified)	0	-4	-8	i	-6	-11	0	-6
O=C(CN1CCN(S(=O)(=O)c2ccc(Br)cc2)CC1)N/N=C/c1ccco1	-13	2	-30	i	·	-23	0	0
Cc1ccc(C(=O)Nc2nnc(NC(=S)Nc3ccccc3)s2)cc1	-2	5	?	i	-28	3	6	1
COc1cc(Cl)c(S(=O)(=O)NCCCN2CCOCC2)cc1Cl	6	5	-14	i	-15	·	-2	0
CCCCOc1ccc(/C=c2\sc3ncnn3c2=O)cc1	1	-1	4	i	-14	14	-1	-2
CCc1cccc(NS(=O)(=O)c2ccc(-n3cccn3)cc2)c1	1	-4	9	i	2	10	2	-10
COc1cc(S(=O)(=O)n2ccc(C)n2)ccc1Cl	8	10	-6	·	-9	-2	-4	-4
CC(=O)c1ccccc1OCCCOc1cccc2cccnc12	·	·	1	i	1	15	5	-2
c1cncc(CNc2ncn[nH]2)c1	-8	-8	1	i	8	0	10	6
CCCNC(=O)Cn1c(=O)oc2cc(S(=O)(=O)N3CC(C)CC(C)C3)ccc21 (stereo unspecified)	3	-5	-8	i	9	-13	1	-4
Cn1ncc(Cl)c1C(=O)NC1C2CC3CC(C2)CC1C3 (stereo unspecified)	9	-1	-4	i	·	15	4	0
Cc1cc2n(n1)C(c1ccsc1)Nc1ccccc1-2 (stereo unspecified)	4	-6	-9	i	-4	-57	-3	-1
COc1ccc(-c2[nH]ncc2/C=N\NC(=O)c2ccc(C(C)(C)C)cc2)cc1OC	-11	-12	-9	i	·	11	3	2
Cc1nnc(NCCN2CCOCC2)[nH]c1=O	8	-1	-11	i	-11	·	-1	-1
COc1ccc(/C=C(/C#N)C(=O)Nc2cccc(C)c2C)cc1C(=O)O	8	-10	3	i	27	·	-4	-2
Cc1ccc(C)c(NC(=O)CN(C)C(=O)c2ccccc2Cc2ccccc2)c1	·	·	6	i	7	-50	0	-1
CCOC(=O)C1CCCN(C(=O)Cc2c(C(=O)O)[nH]c3ccccc23)C1 (stereo unspecified)	6	-1	-11	i	-6	-76	-1	-1
Cc1nc2ccccc2c(=O)n1NC(=O)COc1ccccc1	-6	-2	-11	i	-15	·	1	1
Cc1cccc(C(=O)Nc2sc(C(=O)N3CCCC3)c(C)c2C#N)c1	10	-18	-7	i	-34	5	-7	-2
CC(C)C(=O)Nc1ccc2c(c1)nc(CCN1CCN(c3ccccc3)CC1)n2C	-6	-8	8	i	-16	-15	-2	-2
CC(=O)Nc1ccc(NC(=O)c2oc3cc(C)c(C)cc3c2C)cc1	-9	3	24	·	-12	39	-1	5
COc1ccccc1-c1c(C(F)(F)F)oc2cc(OC(=O)c3ccc([N+](=O)[O-])cc3)ccc2c1=O	-7	-7	·	i	1	·	0	-7
CCN(CC)C(=O)CSc1nc2ncccc2[nH]1	-3	-10	8	i	-7	·	22	6
CCCCCCc1ccc(N2C[C@H](Cc3ccccc3)[C@@H](CC(=O)Nc3ccccc3)C2=O)cc1	-10	-5	36	i	-10	·	6	0
Cc1c(NC(=O)c2cnn3cccnc23)c(=O)n(-c2ccccc2)n1C	-12	-5	-9	i	·	·	-1	1
C[C@@H]1CN([C@H](C)CO)C(=O)CCCn2cc(nn2)CO[C@H]1CN(C)C(=O)Nc1ccc(C(F)(F)F)cc1	·	·	·	·	15&0	-23	8	10
O=C(CNS(=O)(=O)c1ccc2c(c1)OCCCO2)N1CCN(c2ccc(F)cc2)CC1	·	·	·	·	-13	0	2	-7
O=C(COC(=O)/C=C/c1ccccc1Cl)NC1CCCC1	·	·	·	·	-5	-6	-1	-1

Compounds from the list above containing a nitro group on carbon:
SMILES	PABP polyA inh	eIF4H inh	CSC inhib	Rce1 inhib	UUG fidelity	Env fusion inh	MT1-MMP act inh	MT1-MMP act inh RFP	others
O=C(Oc1ccc(-c2cnc3ccccc3n2)cc1)c1ccc(Cl)c([N+](=O)[O-])c1	17	-10	-10	i	·	·	6	7
O=C1c2cccc([N+](=O)[O-])c2C(=O)N1C1CCCCC1	-8	-7	-7	i	1	14	-7	-3
COc1ccccc1-c1c(C(F)(F)F)oc2cc(OC(=O)c3ccc([N+](=O)[O-])cc3)ccc2c1=O	-7	-7	·	i	1	·	0	-7

Going on with the list.
SMILES	PABP polyA inh	eIF4H inh	CSC inhib	Rce1 inhib	UUG fidelity	Env fusion inh	MT1-MMP act inh	MT1-MMP act inh RFP	others
COc1ccc(-n2c(Cc3cccn3C)nnc2SCC(=O)Nc2ccc(Cl)cc2)cc1	-14	-4	-13	i	-11	10	4	0
COc1ccccc1NC(=O)CSc1nnc(-c2ccoc2C)n1C	0	-9	·	i	-5	8	-1	-2
COc1ccc(S(=O)(=O)N(C)CC(=O)Nc2ccccc2OC)cc1C	-2	-1	-7	i	8	·	2	-2
COc1ccc(Nc2oc(-c3ccco3)nc2S(=O)(=O)c2ccc(F)cc2)cc1	4	6	9	·	-14	-23	-3	-7
CCNC(=O)NC(=O)CSc1ccc2ccccc2c1	-5	-5	-14	i	·	-7	-4	-3
COc1ccc(Br)cc1/C=C/c1ccc2cccc(O)c2n1	5	22	28	i	-22	7	-1	-1
Cc1ccc(C(=O)Nc2nnc(COCCO)s2)cc1	·	·	·	·	-16	-22	-2	2
CCN(CC)C(=O)C1CCN(S(=O)(=O)c2ccc3oc4ccccc4c3c2)CC1	-4	2	23	i	-13	·	-3	-21
O=C(Nc1nc(-c2ccncc2)cs1)c1ccc(F)cc1	-26	-8	-7	i	-16	-11	3	5
O=C(NNC(=O)c1ccncc1)Nc1ccc([N+](=O)[O-])cc1	58*	-1	4	i	·	4	2	0	eIF4H inh retest=16;PABP polyA inh retest=63*
CCC(=O)N1CCN(c2nc3ccccc3s2)CC1	1	-5	-14	i	·	·	6	2
COc1ccc(CC(N)c2csc(Nc3cccc(OC)n3)n2)cc1 (stereo unspecified)	·	·	·	·	-2	2	-3	0
COc1ccc(NC(=O)/C(C#N)=C/c2c(C)nn(-c3ccc(F)cc3)c2Cl)cc1Cl	9	-1	62	i	-8	·	3	1
COCc1cc(=O)[nH]c(Nc2nc3ccccc3o2)n1	4	2	30	i	-18	5	2	-4
CC(C)(C)c1ccc(S(=O)(=O)NCCN2CCOCC2)cc1	·	·	·	·	-3	-4	-1	-2
C=CCNC(=O)C1(S(=O)(=O)c2ccccc2)CC=CC1	6	-3	-4	i	-9	-8	3	5
O=C(Nc1ccccc1[N+](=O)[O-])c1cncc(Br)c1	-5	6	-6	i	·	1	-3	1
C/C(=N\Nc1cc(N2CCOCC2)nc(C)n1)c1cccc([N+](=O)[O-])c1	-1	0	-1	i	·	3	-2	-11
CCn1c(S(=O)(=O)O)nc2ccccc21	5	3	-21	i	-14	-9	2	5
COCc1c(C#N)c(NCCc2ccc(F)cc2)nc(C)c1[N+](=O)[O-]	-8	4	-16	i	·	11	-4	0
CCSc1ncccc1-c1nc2ccccc2[nH]1	0	3	·	i	-24	-4	4	0
CN(C)c1ccc(N=Nc2cccc3ccoc23)cc1	-8	-11	24	i	-26	-68	5	3
Cc1ccc2nc3c(c(Nc4cccc(O)c4)c2c1)CCC3	8	5	37	i	-7	6	6	-1
O=c1c(-c2ccccc2)coc2c(CN3CCCCC3)c(O)ccc12	-1	3	-16	i	-14	-20	2	-1
Cc1ccc2oc(C(=O)NCc3ccc4c(c3)OCO4)c(C)c2c1	-3	4	23	·	4	·	0	2
O=C(c1snnc1-c1ccccc1)N1CCOCC1	12	-4	-3	i	·	23	0	3
CCOc1ccc(C(C)C)cc1S(=O)(=O)Nc1ccc(Cl)cn1	6	5	-6	i	-4	·	-1	1
COc1ccc(C(=O)OCc2ccccc2F)cc1S(=O)(=O)N1CCCC1	·	·	-6	·	-15	·	10	-4
O=C(Nc1ccc(S(=O)(=O)N2CCCC2)cc1)c1ccc(OCC2CCCO2)cc1 (stereo unspecified)	1	-15	40	i	23	11	-14	-27
Cc1cccc(NC(=O)N(C)Cc2cccs2)c1	5	-1	8	i	-7	-62	-1	1
O=C1C=C(c2ccc(-c3ccccc3)c(F)c2)C[C@@H](c2ccc3c(c2)OCO3)C1	·	·	28	·	-10	16	5	0
CCCC(=O)NCC(c1cccs1)S(=O)(=O)c1ccc(Cl)cc1 (stereo unspecified)	-1	0	-4	i	·	-18	2	2
COC(=O)C1=C(C(=O)OC)[N+]2=C3N(C(=O)NC2(C)C)[C@H](CO)C[C@@]32c3ccccc3N(Cc3ccccc3)[C@@H]12	·	·	-3	i	-12	-34	3	-3
CCCC(C)NC(=O)COc1ccc(Sc2ccc(OCC(=O)NC(C)CCC)cc2)cc1 (stereo unspecified)	20	1	-3	i	·	33	-6	-29
CCCSc1sc(C(=O)OC)c(-c2cccs2)c1C#N	5	-2	14	i	·	-8	·	·
CCOC(=O)C1CCCN(C(=O)CCNS(=O)(=O)c2cc(Br)cnc2N)C1 (stereo unspecified)	·	·	-10	i	-9	-6	4	1
CCOC(=O)CC1COCCN1Cc1cn[nH]c1-c1ccc2c(c1)OCO2 (stereo unspecified)	-6	3	·	i	-11	6	1	-1
Cc1ccc(N2CN=C3SCC(=O)N3C2)cc1C	-6	-4	-14	i	-17	-9	3	-1
O=C(CN1CCN(c2ccccn2)CC1)Nc1ccc([N+](=O)[O-])cc1C(=O)Nc1ccccc1F	6	-13	9	i	7	60*	-5	-4
Cc1c(C)c2ccc(OC(C)C(=O)N3CC[C@@]4(O)CCCC[C@H]4C3)c(C)c2oc1=O (stereo partly specified)	14	2	-6	i	-8	·	2	2
O=C(c1cc(Cl)ccc1[N+](=O)[O-])N1CCc2ccccc2C1	-10	-14	-7	i	·	-30	-2	-2
